Bioassay records: PubChem BioAssay, several laboratories
VCAM-1 down imaging – suppression of endothelial VCAM-1 upregulation – imaging, high-content imaging, pooled HUVEC, TNFa stimulus (AID 456); HUVEC TNFa-induced VCAM-1 surface expression, immunofluorescence imaging; numbers were filed only for top-ranked candidate wells; one-dose inhibition, % at 5 µM; IC50 in µM for titrated hits; actives 0.2% (n = 10,000);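 active = top tenth filtered wells with inhibition above zero that passed visual or statistical confirmation; inactive = the rest, including hits rejected on review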;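 note: 0% = stimulated vehicle wells and 100% = unstimulated cells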
FPR ligand – binds the human formylpeptide receptor FPR. P21462. FPR-expressing cells, fluorescent ligand binding, flow cytometry. inhibition, %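 (tested at 6.7 µM)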. actives 0.74% (n = 24,000). AID 440;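 note: 0% = buffer wells and 100% = receptor blocker peptide wells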
Target sequence (P21462 whole entry, looked up): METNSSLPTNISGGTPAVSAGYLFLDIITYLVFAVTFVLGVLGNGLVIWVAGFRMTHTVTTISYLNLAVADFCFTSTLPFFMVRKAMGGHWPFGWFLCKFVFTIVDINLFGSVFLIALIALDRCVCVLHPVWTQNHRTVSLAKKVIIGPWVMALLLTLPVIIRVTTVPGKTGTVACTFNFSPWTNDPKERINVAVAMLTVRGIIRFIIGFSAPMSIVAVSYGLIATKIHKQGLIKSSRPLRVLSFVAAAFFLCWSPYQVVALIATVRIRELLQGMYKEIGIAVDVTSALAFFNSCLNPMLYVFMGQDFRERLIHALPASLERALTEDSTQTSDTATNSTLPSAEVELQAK
VCAM-1 inhibition – inhibitors of TNFa-induced VCAM-1 surface display, cell-based, plate reader, pooled HUVEC, TNFa stimulus (AID 454). HUVEC TNFa-induced VCAM-1 surface immunofluorescence, plate reader; numbers were filed only for top-ranked candidate wells. inhibition, % at 5 µM. actives 0.2% (n = 10,000);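 active = compound among top-ranked inhibitors of TNF-induced VCAM-1 adhesion protein staining, with the hit upheld by image or statistical review; inactive = the rest, including hits rejected on review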;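 note: 0% = TNFa with vehicle and 100% = cells without TNFa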
VCAM-1 up imaging – boosters of cytokine-driven VCAM-1 levels – imaging, high-content imaging, pooled HUVEC, TNFa stimulus (AID 457) | Pooled HUVEC, TNFa-induced VCAM-1 immunofluorescence imaging; hits of this screen are not shown here | actives 0.2% (n = 10,000) | calls only;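 active = a top-ranked rise in VCAM-1 staining upheld on image or statistical review; inactive = the rest, including candidates rejected on review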;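 note: compounds tested at 5 µM in the well; cells exposed to compound for 24 hours before fixing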
FPRL1 ligand – binds the human formylpeptide receptor-like-1 FPRL1; P25090; FPRL1-expressing cells, fluorescent ligand binding inhibition, flow cytometry; inhibition, %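 (tested at 6.7 µM)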; actives 0.3% (n = 24,000); AID 441;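 note: 0% = buffer alone and 100% = receptor blocker peptide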
Target sequence (P25090 whole entry, looked up): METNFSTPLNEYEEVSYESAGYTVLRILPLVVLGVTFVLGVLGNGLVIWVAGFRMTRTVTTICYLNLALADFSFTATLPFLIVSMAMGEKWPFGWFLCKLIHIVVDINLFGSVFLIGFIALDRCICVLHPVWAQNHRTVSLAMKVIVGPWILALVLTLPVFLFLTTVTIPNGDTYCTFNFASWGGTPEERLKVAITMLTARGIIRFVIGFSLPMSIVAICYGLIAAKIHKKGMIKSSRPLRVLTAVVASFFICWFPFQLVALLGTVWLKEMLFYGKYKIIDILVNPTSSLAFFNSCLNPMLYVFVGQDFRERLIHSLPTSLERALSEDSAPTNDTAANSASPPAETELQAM
Active calls of the source: *; i = inactive; ? = inconclusive; / = no result given.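 Rule for the calls, unless noted: active = mean above 30%; inconclusive = self-fluorescent; inactive = the rest.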 Some of the compounds tested (hit frequency here may not be typical).

The line under a structure holds: VCAM-1 inhibition	VCAM-1 up imaging	FPR ligand	FPRL1 ligand	VCAM-1 down imaging
Cc1ccc(/C(O)=C2/C(=O)C(=O)N(Cc3ccco3)C2c2cccs2)cc1 (stereo unspecified)
    i	i	7.1	5.2	i
O=C(C1CC1)N1CCc2cc(Br)cc(S(=O)(=O)NCC3COc4ccccc4O3)c21 (stereo unspecified)
    /	/	-2.8	6.8	/
CCCCn1c(SCC(=O)Nc2cc(C)[nH]n2)nc2ccsc2c1=O
    /	/	1.2	-10.8	/
CCN(CC)S(=O)(=O)c1ccc(C(=O)N2CCN=C2SCc2cccnc2)cc1
    i	i	-3.9	2.3	i
CCOC(=O)Cn1c(C(C)=O)nc2ccccc21
    /	/	-5.1	-2.1	/
COc1cc(NC(=O)C2CCC(CNc3c(N4CCCCC4)c(=O)c3=O)CC2)cc(OC)c1 (stereo unspecified)
    /	/	0.4	-0.6	/
COc1cccc(-c2cc(C(=O)Nc3cccc(O)c3)no2)c1
    /	/	-4.6	2.6	/
O=C(C1CCN(S(=O)(=O)c2cccnc2)CC1)N1CCN(C2CCCC2)CC1
    /	/	3.3	6.1	/
COc1ccc(C2=NOC(C(=O)NCC(C)C)C2)cc1 (stereo unspecified)
    /	/	1.0	4.2	/
Cc1cc(S(=O)(=O)NCCCN2CCOCC2)ccc1F
    /	/	-10.7	?	/
COC(=O)c1cn(C(=O)c2ccccc2F)nc1N
    /	/	-1.1	-4.4	/
Cc1c(Cl)cccc1NC(=O)CCN1CCCCC1
    i	i	5.6	5.3	i
CCOC(=O)c1cnc2c(C)c(Cl)ccc2c1N1CCOCC1
    /	/	7.7	9.5	/
CCCN1Cc2cccc(C(=O)Nc3ccc4c(c3)OCO4)c2C1=O
    /	/	-5.2	-7.8	/
O=C(c1c[nH]c2ccc(S(=O)(=O)N3CCOCC3)cc2c1=O)N1CCCC1
    /	/	-4.8	2.8	/
Cc1ccccc1NC(=O)CSc1nnc(Cc2cccn2C)n1-c1ccc(F)cc1
    i	i	0.7	11.1	i
CCOC(=O)N1CCC(Nc2c(OCC)c(=O)c2=O)CC1
    /	/	-0.3	2.5	/
CC(C)(C)CC(=O)Nc1ccc(Nc2ccccc2)cc1
    /	/	21.9	28.6	/
COC(=O)c1cc(Cl)c(NS(=O)(=O)c2ccccc2)cc1OC
    /	/	5.4	1.7	/
CC(=O)c1cc(-c2ccccc2)n(CC(=O)NCc2cccs2)c1C
    /	/	0.4	-0.1	/
CN1CC(=O)N/C1=N\C(=O)Nc1ccc2c(c1)N(C)C(=O)CS2
    /	/	1.8	11.1	/
COC(=O)c1cc(NC2c3ccccc3C(=O)N2c2ccc(Cl)cn2)cc(C(=O)OC)c1 (stereo unspecified)
    /	/	-5.7	-10.9	/
CC1CCN(C(=O)CNC(=O)Cn2ccc3ccccc3c2=O)CC1
    /	/	-5.8	4.2	/
O=C(NCCN1CCN(c2ccccc2F)CC1)C1c2ccccc2C(=O)N2CCc3ccccc3C12 (stereo unspecified)
    /	/	5.1	-1.8	/
COC(=O)CNC(=O)COC(=O)c1cc(Cl)cc(Cl)c1N
    i	i	-0.5	2.3	i
CCN(CC)S(=O)(=O)c1cc(C(=O)Nc2ccccc2C(=O)O)ccc1OC
    /	/	10.6	-18.8	/
C=C(C)Cn1c(N(CCO)Cc2ccccc2)nc2c1c(=O)[nH]c(=O)n2C
    /	/	-7.7	-14.1	/
O=C(CCc1nc2ccccc2s1)OCC(=O)N1CCN(C(=O)c2ccco2)CC1
    i	i	6.0	0.4	i
COc1cc2c(cc1OC)C(c1cccnc1)CC(=O)N2 (stereo unspecified)
    i	i	1.3	3.4	i
Cc1nc(S(=O)(=O)N(C)c2ccccc2)c(C#N)c(C)c1Cl
    /	/	2.6	3.3	/
CCc1ccc(C2CC(c3ccc(F)cc3)Nc3nc(N)nn32)cc1 (stereo unspecified)
    /	/	10.3	17.0	/
CC(C)(C)OC(=O)N1CCC(c2cc(=O)n3[nH]cc(C(=O)NC4CCCC4)c3n2)CC1
    /	/	23.0	0.6	/
CCOC(=O)C1CCN(S(=O)(=O)c2cc(Br)cc3c2N(C(=O)C2CC2)CC3)CC1
    /	/	-7.9	-8.3	/
Cc1ccc(C)c(S(=O)(=O)n2cnc3ccccc32)c1
    i	i	-0.2	-2.7	i
Nc1nc(N2CCN(C/C=C/c3ccccc3)CC2)nc2ccccc12
    i	i	-4.5	-8.1	i
Cn1c(Cn2c(=O)sc3ccccc32)nnc1SCC(=O)NC1CCCC1
    /	/	3.8	19.8	/
COC(=O)C1=C(C)n2nnnc2NC1c1ccc(Cl)cc1 (stereo unspecified)
    i	i	-5.2	-4.3	i
O=C(CSc1nc(-c2ccco2)cc(C(F)(F)F)n1)N1CCN(Cc2ccccc2)CC1
    /	/	3.2	-3.3	/
CCOc1cc(C(=O)N2CCN=C2SC)cc(OCC)c1OCC
    i	i	-1.2	0.6	i
O=C(Nc1cccnc1)c1noc2c1CCCC2
    /	/	-6.9	-1.2	/
CN(C)c1ccc(CNCCC2(O)CCOC(C)(C)C2)cc1 (stereo unspecified)
    i	i	-3.8	-1.6	i
Cc1ccc(S(=O)(=O)N2CCC(C(=O)NCCCN3CCCCCC3)CC2)cc1
    /	/	-6.8	4.1	/
Cc1cc(NC(=O)c2ocnc2C)no1
    /	/	-4.8	3.0	/
COCCN(C(=O)Cn1nnc2ccccc21)C(C(=O)NC1CCCC1)c1cc(OC)ccc1OC (stereo unspecified)
    i	i	-9.2	4.6	i
COc1ccc(OC)c(NC(=O)NC2(C(F)(F)F)Oc3ccccc3O2)c1
    /	/	-4.0	8.9	/
CCOC(=O)C1CCCN(c2c(Nc3ccc(C)c(C)c3)c(=O)c2=O)C1 (stereo unspecified)
    i	i	5.5	6.6	i
COc1ccccc1CC(=O)NCC1CCCO1 (stereo unspecified)
    i	i	0.5	0.3	i
CCOC(=O)Cc1csc(NC(=O)C2CCCN(S(=O)(=O)c3cnc[nH]3)C2)n1 (stereo unspecified)
    /	/	2.6	-0.6	/
COc1ccc(OC)c(C2CC(=O)N3CN(c4cccc(Cl)c4C)CSC3=C2C#N)c1 (stereo unspecified)
    /	/	0.8	-0.4	/
COCCCNC(=O)CS(=O)(=O)Cc1nc(-c2cccc(OC)c2)oc1C
    /	/	10.1	0.0	/
Cc1ccc(S(=O)(=O)CCc2nnc(NC(=O)c3cnccn3)s2)cc1
    i	i	-0.7	2.5	i
O=C1C(c2ccncc2)=C(O)c2ccccc21
    i	i	-0.9	4.8	i
CN(C=C1C(=O)CC(C)(C)CC1=O)CCN1CCNCC1
    i	i	7.2	-0.7	i
Cc1c(NC(=O)C(C)N2C(=O)C3C4C=CC(C4)C3C2=O)c(=O)n(-c2ccccc2)n1C (stereo unspecified)
    /	/	1.7	2.0	/
COCCn1c(=S)[nH]c2ncccc2c1=O
    /	/	20.1	17.6	/
CN1C(=O)C(C(=O)NC(C)(C)C)C2c3ccccc3OC13CCCCC23 (stereo unspecified)
    /	/	3.6	-0.2	/
Cc1oc(-c2ccccc2F)nc1CN1CCC(C(=O)NCc2ccco2)CC1
    /	/	-9.9	2.7	/
CCOC(=O)N1CCN(S(=O)(=O)c2ccc3c(c2)CCN3C(=O)C2CC2)CC1
    /	/	-6.6	-4.0	/
Cc1cccc(NC(=O)c2sc3nc(-c4ccc(F)cc4)cn3c2C)n1
    /	/	-2.5	11.5	/
CCCCCn1c(=S)[nH]c2ncccc2c1=O
    /	/	0.0	-3.8	/

The listing continues:
The line under a structure holds: VCAM-1 inhibition	VCAM-1 up imaging	FPR ligand	FPRL1 ligand	VCAM-1 down imaging
CCOC(=O)Nc1sc(=S)n(C)c1C
    i	i	19.2	3.6	i
CCC1CCCCN1C(=O)CSc1nnc(CNC(=O)c2cc(OC)c(OC)c(OC)c2)o1 (stereo unspecified)
    /	/	4.6	6.1	/
CCOC(=O)c1c(NC(=O)c2cc(C3CC3)on2)sc2c1CCCC2
    /	/	9.6	58.2*	/
CC(CCc1ccco1)NC(=O)Cn1ncc2c1-c1ccccc1OC2 (stereo unspecified)
    i	i	-4.1	-3.1	i
C/C(N)=N\S(=O)(=O)c1ccc(Cl)cc1
    /	/	-1.5	4.9	/
COc1cc2c(cc1OC)CN(C(=O)COc1ccc(C#N)cc1)CC2
    i	i	-6.3	-2.0	i
CC(C)N1C(=O)C2C(c3ccccc3O)NC(C)(C(=O)O)C2C1=O (stereo unspecified)
    /	/	0.9	-4.6	/
CCOC(=O)CSc1nnc([C@H](C)NC(=O)OC(C)(C)C)o1
    i	i	3.4	2.2	i
Cc1ccc(Cn2ncc3c(NCCCN4CCOCC4)ncnc32)cc1
    i	i	1.4	2.9	i
Cc1ccccc1-c1nc(CS(=O)(=O)CC(=O)NCCCN2C(C)CCCC2C)c(C)o1 (stereo unspecified)
    /	/	0.9	-0.4	/
CCN1CCCC1CNC(=O)CS(=O)(=O)Cc1nc(-c2ccccc2C)oc1C (stereo unspecified)
    i	i	0.4	-1.5	i
Cn1c(=O)oc2cc(S(=O)(=O)NCc3ccco3)ccc21
    /	/	4.2	-3.8	/
O=C(c1cc2ccccn2n1)N1CCN(c2ccccn2)CC1
    /	/	-3.5	-9.0	/
CC1CCCC(C)N1C(=O)C1CC(c2ccc(F)cc2)=NO1 (stereo unspecified)
    /	/	2.9	-0.5	/
CCCCOc1ccccc1-c1cc(C(=O)O)[nH]n1
    /	/	1.5	-3.6	/
CSc1ccc(C2C3(C#N)C(N)=NC4(OCCO4)C23C#N)cc1 (stereo unspecified)
    /	/	2.6	0.7	/
NC(=O)SCC(=O)Nc1cccc(Cl)c1
    i	i	-6.4	-3.8	i
CCCc1nnc(NC(=O)NCCN2C(=O)C3C4C=CC(C4)C3C2=O)s1 (stereo unspecified)
    i	i	-7.3	5.5	i
O=C(Nc1cc(C(F)(F)F)ccc1N1CCCC1)c1ccc2c(c1)OCO2
    i	i	-5.0	-3.5	i

Some of these compounds in order of length of the SMILES, lowest first.
The line under a structure holds: VCAM-1 inhibition	VCAM-1 up imaging	FPR ligand	FPRL1 ligand	VCAM-1 down imaging
CCOC(=O)Nc1sc(=S)n(C)c1C
    i	i	19.2	3.6	i
NC(=O)SCC(=O)Nc1cccc(Cl)c1
    i	i	-6.4	-3.8	i
C/C(N)=N\S(=O)(=O)c1ccc(Cl)cc1
    /	/	-1.5	4.9	/
CCCCOc1ccccc1-c1cc(C(=O)O)[nH]n1
    /	/	1.5	-3.6	/
O=C(c1cc2ccccn2n1)N1CCN(c2ccccn2)CC1
    /	/	-3.5	-9.0	/
Cn1c(=O)oc2cc(S(=O)(=O)NCc3ccco3)ccc21
    /	/	4.2	-3.8	/
Cc1ccc(Cn2ncc3c(NCCCN4CCOCC4)ncnc32)cc1
    i	i	1.4	2.9	i
CC(CCc1ccco1)NC(=O)Cn1ncc2c1-c1ccccc1OC2 (stereo unspecified)
    i	i	-4.1	-3.1	i
COc1cc2c(cc1OC)CN(C(=O)COc1ccc(C#N)cc1)CC2
    i	i	-6.3	-2.0	i
CCOC(=O)c1c(NC(=O)c2cc(C3CC3)on2)sc2c1CCCC2
    /	/	9.6	58.2*	/
CC(C)N1C(=O)C2C(c3ccccc3O)NC(C)(C(=O)O)C2C1=O (stereo unspecified)
    /	/	0.9	-4.6	/
O=C(Nc1cc(C(F)(F)F)ccc1N1CCCC1)c1ccc2c(c1)OCO2
    i	i	-5.0	-3.5	i
CCN1CCCC1CNC(=O)CS(=O)(=O)Cc1nc(-c2ccccc2C)oc1C (stereo unspecified)
    i	i	0.4	-1.5	i
CCC1CCCCN1C(=O)CSc1nnc(CNC(=O)c2cc(OC)c(OC)c(OC)c2)o1 (stereo unspecified)
    /	/	4.6	6.1	/
Cc1ccccc1-c1nc(CS(=O)(=O)CC(=O)NCCCN2C(C)CCCC2C)c(C)o1 (stereo unspecified)
    /	/	0.9	-0.4	/
